Dynein transport – dynein cargo transport inhibition. z-score, hits read low. 3617.4 mouse cells, GR-EGFP nuclear translocation imaging; test concentration mostly 20 µM; stimulated with dexamethasone, 1 µM; hits give low values. 0.47% of 220,000 active;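 active means plate z-score of nuclear minus cytoplasmic receptor signal below a set negative limit, without overly bright fluorescence or cell loss, cut at about -3.5 in these data, passing the limit was not always enough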;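 further: z-score of nuclear minus cytoplasmic ring GR-EGFP intensity difference per well; some compounds called inactive have numbers as strong as hits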
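Also added: dexamethasone, 1.0 µM final. Medium: tet-free, stripped-serum medium. Detection: fixed, Hoechst-stained cells imaged at 10x for EGFP. Read-out: nuclear-to-cytoplasmic GR-EGFP distribution per well. Times: induction 48 h, compound 1 h, agonist 30 min.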
WT yeast gro inh – growth inhibition of WT yeast, mitochondrial fusion screen | AID 1362 | inhibition, % at 10 µM | 2.1% of 190,000 active | mitochondrial fusion phenotypic screen, WT strain; in the data active means inhibition above about 58%; tested in S. cerevisiae
P. falciparum M1AAP – P. falciparum M1AAP inhibitors, biochemical, fluorogenic H-Leu-NHMec substrate, 1536-well (AID 1445); inhibition, % at 30 µM, or IC50 in µM where a hit was titrated; recombinant M1AAP, H-Leu-NHMec fluorogenic kinetic assay; higher % means a stronger effect; 0.42% of 220,000 active;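 active means primary inhibition above the hit cutoff, then over 50% inhibition at one or more dose response concentrations, cut at about 23% in these data, passing the limit was not always enough; inconclusive means conflicting primary data, or primary hits not chosen for dose response; inactive means low primary inhibition, or under 50% at every dose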;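 further: plate controls were DMSO full reaction for no effect and no enzyme background for full effect; strong numbers were not always called active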
T cell HTS – T cell immune modulation candidate; calls only at 7 µM; AID 2052; 0.068% of 330,000 active; 2C CD8+ T cell-vesicle binding, flow cytometry; hits give low values;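 active means response, share of CD8 T cells binding vesicles, and their 90th percentile fluorescence all below set limits, cut at about 80% in these data, passing the limit was not always enough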
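Test system: purified 2C TCR transgenic mouse naive CD8+ T cells. Probe or stimulus: QL9-peptide-loaded Drosophila micro-vesicles bearing Ld, ICAM-1 and B7-1. Incubation: binding step 1.5 h, 37 °C, antibody labelling 20 min, ice. Measured by: flow cytometry of vesicle-bound cells.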
Yfh1-off respiration – mitochondrial function rescue without frataxin homolog – Friedreich's ataxia, plus single-dose screen, dose response (AID 1465). S. cerevisiae Yfh1-off respiration, WST-1 reduction, 72 h; higher fold induction means a stronger effect. 0.074% of 220,000 active. one-dose fold induction at 50 µM; EC50 in µM for titrated hits;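 active means fold induction of absorbance versus untreated yeast above a set limit, then at least 30% activation at any dose in follow-up; inconclusive means repeats straddling the limit, or above it without dose testing; inactive means fold induction below the set limit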;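 further: activators that raise dye reduction in frataxin-depleted yeast; strong numbers were not always called active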
Autophagy mod – modulators of autophagy; MEF GFP-LC3 puncta imaging; test concentration mostly 10 µM; calls only at 10 µM (by protocol); 0.98% of 190,000 active;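 active means percentage of spot-positive cells more than 3 SD above its plate mean, without a fluorescence outlier flag or 80% toxicity; inconclusive means no clear call, values can overlap the other calls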;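 further: spot-positive cell cutoff set from DMSO-treated cells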
MT stabilize HCS – microtubule stabilization, imaging screen. HeLa tubulin immunostaining HCS, 24 h; share of cells brighter than vehicle mean+2SD. % tubulin-high responders, % at 10 µM. 0.83% of 200,000 active;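 active means plate Z-score above 3 for both tubulin-high and condensed-nucleus cell shares, with cell loss under 80%, at 10 µM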;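 further: anti alpha tubulin signal scored within the nucleus-defined area of each cell; some results filed as inactive read as strong as hits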
P. falciparum M17LAP – P. falciparum M17LAP inhibitors, primary screen, biochemical, fluorogenic H-Leu-NHMec substrate, 1536-well (AID 1619); recombinant M17LAP, H-Leu-NHMec fluorogenic kinetic assay; higher % means a stronger effect; inhibition, % at 30 µM, or IC50 in µM where a hit was titrated; 0.38% of 220,000 active;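 active means compound inhibiting the enzyme by more than half at any dose during confirmatory dose-response retesting; inconclusive means strong single-dose inhibitors picked by rank but not retested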;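 further: plate controls were full reaction with DMSO carrier for no effect and no enzyme background for full effect; strong numbers were not always called active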
WT yeast gro inh mutant strain – also measured in WT yeast gro inh; calls as there; inhibition, %; mitochondrial fusion phenotypic screen, mutant strain inhibition
Dynein transport cytoplasmic EGFP – also measured in Dynein transport; calls as there; z-score; measured here: cytoplasmic GR-EGFP intensity; hits give high values
Dynein transport nuclear GR-EGFP – further read-out of Dynein transport, marked with its call; z-score; measured here: nuclear GR-EGFP intensity;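 lower value marks the stronger effect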
Dynein transport cell count – second read-out of Dynein transport, no call of its own (marks repeat the call); z-score; measured here: cell count per field
T cell HTS vesicle-bound % – recorded beside T cell HTS, whose call it bears; double positive events, %; measured here: CD8+ vesicle-bound cell fraction;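 binding gate set so that unloaded-vesicle control wells show 10% double positive cells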
MT stabilize HCS Hoechst-high % – second read-out of MT stabilize HCS, no call of its own (marks repeat the call); % Hoechst-high responders; measured here: nuclear condensation Hoechst responders;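 share of cells brighter than vehicle mean plus two SD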
MT stabilize HCS cytotoxicity % – second read-out of MT stabilize HCS, no call of its own (marks repeat the call); toxicity, %; measured here: cytotoxicity by cell density;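 0% = mean cell density of plate MIN control wells and 100% = no cells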
Autophagy mod cell loss 18 h – second read-out of Autophagy mod, no call of its own (marks repeat the call); toxicity, %; measured here: cell loss, nuclei count;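 cell loss after 18 h compound exposure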
* hit, by the source's call; i = inactive; ? = inconclusive; · = not tested or not shown. A portion of the library; the hit share may differ from the screen's.

nr	molecule	Dynein transport	Dynein transport cytoplasmic EGFP	Dynein transport nuclear GR-EGFP	Dynein transport cell count	WT yeast gro inh	WT yeast gro inh mutant strain	P. falciparum M1AAP	T cell HTS	T cell HTS vesicle-bound %	Yfh1-off respiration	Autophagy mod	Autophagy mod cell loss 18 h	MT stabilize HCS	MT stabilize HCS Hoechst-high %	MT stabilize HCS cytotoxicity %	P. falciparum M17LAP
1	Cc1nc2nc(C)c(CCC(=O)NC(C)c3ccc4c(c3)OCCO4)c(C)n2n1 (centres undefined)	2.2	-0.18	0.46	-1.1	21	8	4%	i	30	i	i	-10	2.1	1.0	0.6	-2%
2	COc1cc(/C=C(/NC(=O)c2ccccc2)C(=O)Nc2ccccc2)c([N+](=O)[O-])cc1OC	-0.46	-0.097	-0.42	0.63	-18	1	12%	i	16	·	i	-5	3.3	1.7	4.7	10%
3	CCn1c(COc2ccc(OC)cc2)nc2ccccc21	-0.11	-0.2	-0.72	0.37	-3	10	6%	i	11	i	i	4	3.2	2.0	7.6	0%
4	Cc1ccc(-c2nc3ccccc3s2)cc1NC(=S)NC(=O)/C=C/c1ccco1	-0.91	0.055	0.063	-0.011	-2	14	10%	i	19	i	i	4	3.9	1.4	6.9	49%
5	COCCN(C(=O)C(C)C)c1nnc(-c2ccc(C)cc2)s1	-0.088	-0.19	-0.71	-0.57	-9	-21	2%	i	31	i	i	-4	1.9	1.5	3.8	-3%
6	Nc1c(C(=O)NCC2CCCO2)c2nc3ccccc3nc2n1-c1ccccc1 (centres undefined)	1.3	-0.28	0.72	-0.26	6	-7	13%	i	57	i	i	14	3.4	1.7	5.4	-94%
7	Nc1ccc(N(c2ccccc2)c2ccc(N)cc2)cc1	-0.17	-0.25	-0.77	-0.045	-10	-4	-4%	i	44	i	i	8	3.7	1.7	1.5	-1%
8	CCC(C)[C@H](NC(=O)NCc1ccccn1)C(=O)OC (some centres undefined)	0.43	-0.53	0.31	0.017	16	-3	0%	i	20	i	i	-2	4.1	2.8	5.5	18%
9	Cc1ccccc1NC(=O)Cc1c(O)c2ccccc2[nH]c1=O	-0.15	-0.031	0.45	0.84	-5	8	-2%	i	8	i	i	-6	2.8	1.3	6.6	4%
10	CC(C)(C)c1ccc(C(=O)Nc2ccc(NC(=O)c3ccco3)cc2)cc1	-0.34	-0.18	-0.048	1.1	-1	-7	16%	i	38	i	i	2	1.9	1.3	15	-19%
11	Cc1ccc(CCNC(=O)CCNS(=O)(=O)c2ccc3c(c2)c(=O)n(C)c(=O)n3C)cc1	0.88	-0.17	0.25	0.025	21	11	-5%	i	14	i	i	-13	4.2	3.3	8.4	9%
12	COC(=O)C1=C(C(=O)c2ccc(C)cc2)C(c2ccccc2)n2nnnc2N1 (centres undefined)	-0.61	-0.2	-0.93	0.11	11	4	3%	i	36	·	i	5	1.9	0.7	0.8	8%
13	NS(=O)(=O)c1ccc(CCNC(=O)CSc2ccccc2)cc1	-0.87	-0.14	-0.55	0.027	-20	-13	?	i	22	i	i	-15	3.0	1.8	1.5	-1%
14	C[C@H](NC(=O)NC1CCCc2ccccc21)C(=O)O (some centres undefined)	0.39	-0.24	-0.79	0.23	25	22	-2%	i	5	i	i	-6	2.4	2.2	1.5	3%
15	O=C(NCCN1CCOCC1)c1ccccc1[N+](=O)[O-]	0.65	2.5	1.7	-0.12	0	-3	6%	i	41	i	i	-27	3.2	1.6	4.0	9%
16	O=C(Nc1ccc2c(c1)OCCO2)c1cc2sccc2n1Cc1ccccc1	-1.5	0.087	-1.3	0.17	-4	-3	-2%	i	58	i	i	0	2.1	1.1	6.9	-7%
17	COc1ccc(NC(=O)c2ccc3c(=O)n(Cc4ccco4)c(=S)[nH]c3c2)c(OC)c1	-0.75	-0.15	-0.36	1.4	7	6	6%	i	18	i	i	54	2.3	2.0	9.5	-7%
18	CN1C(=O)/C(=C/c2ccccc2OCc2ccccc2F)NC1=S	-0.64	-0.17	0.12	0.66	17	-3	4%	i	37	·	i	11	2.1	1.6	9.9	0%

In the list so far, these contain sulfur.
nr	molecule	Dynein transport	Dynein transport cytoplasmic EGFP	Dynein transport nuclear GR-EGFP	Dynein transport cell count	WT yeast gro inh	WT yeast gro inh mutant strain	P. falciparum M1AAP	T cell HTS	T cell HTS vesicle-bound %	Yfh1-off respiration	Autophagy mod	Autophagy mod cell loss 18 h	MT stabilize HCS	MT stabilize HCS Hoechst-high %	MT stabilize HCS cytotoxicity %	P. falciparum M17LAP
4	Cc1ccc(-c2nc3ccccc3s2)cc1NC(=S)NC(=O)/C=C/c1ccco1	-0.91	0.055	0.063	-0.011	-2	14	10%	i	19	i	i	4	3.9	1.4	6.9	49%
5	COCCN(C(=O)C(C)C)c1nnc(-c2ccc(C)cc2)s1	-0.088	-0.19	-0.71	-0.57	-9	-21	2%	i	31	i	i	-4	1.9	1.5	3.8	-3%
11	Cc1ccc(CCNC(=O)CCNS(=O)(=O)c2ccc3c(c2)c(=O)n(C)c(=O)n3C)cc1	0.88	-0.17	0.25	0.025	21	11	-5%	i	14	i	i	-13	4.2	3.3	8.4	9%
13	NS(=O)(=O)c1ccc(CCNC(=O)CSc2ccccc2)cc1	-0.87	-0.14	-0.55	0.027	-20	-13	?	i	22	i	i	-15	3.0	1.8	1.5	-1%
16	O=C(Nc1ccc2c(c1)OCCO2)c1cc2sccc2n1Cc1ccccc1	-1.5	0.087	-1.3	0.17	-4	-3	-2%	i	58	i	i	0	2.1	1.1	6.9	-7%
17	COc1ccc(NC(=O)c2ccc3c(=O)n(Cc4ccco4)c(=S)[nH]c3c2)c(OC)c1	-0.75	-0.15	-0.36	1.4	7	6	6%	i	18	i	i	54	2.3	2.0	9.5	-7%
18	CN1C(=O)/C(=C/c2ccccc2OCc2ccccc2F)NC1=S	-0.64	-0.17	0.12	0.66	17	-3	4%	i	37	·	i	11	2.1	1.6	9.9	0%
